High-throughput results (PubChem BioAssay)
Vaccinia stage – Vaccinia orthopox stage-specific inhibition; Vaccinia-infected cells, mCherry/Venus stage reporter fluorescence; hits give low values; some inactives read as strong as hits; activity change (mCherry), % (concentration not given with the values); AID 1053133; actives 0.01% (n = 89,000);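 active = mCherry past -33% and 40 or more points under the early reporter, replicates agreeing; inconclusive = past -33% without that gap or agreement; tested in A549 cells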;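 also: scaled between vehicle wells and reference inhibitor wells; 23 nL library stock went into each well; one replicate is shown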
Vaccinia stage Venus – further read-out of Vaccinia stage, marked with its call; activity change (Venus), %; measured here: Venus reporter, other viral stage;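 negative = less Venus signal; first of two replicates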
* hit, by the source's call; ? = inconclusive; . = no result given; & = joins results of further samples. This is a subset (hit frequency here may not be typical).

mol | Vaccinia stage | Vaccinia stage Venus
COc1ccc(CN(C)C[C@@H]2OCCCC[C@@H](C)Oc3ccc(NC(=O)C4CCCCC4)cc3C(=O)N([C@@H](C)CO)C[C@@H]2C)cc1 | ? | .
COc1ccccc1NC(=O)N[C@H]1CC[C@H](CC(=O)N[C@H](C)c2ccccc2)O[C@@H]1CO | -13 | -2
Cc1ccc(S(=O)(=O)Nc2ccc3c(c2)C(=O)N([C@H](C)CO)C[C@@H](C)[C@H](CN(C)Cc2ccccc2)O3)cc1 | 7 | 5
O=C(C1CCCCC1)N1CC(=O)N2[C@@H](CO)[C@H](c3ccc(C#CCc4ccccc4)cc3)[C@@H]2C1 | 12 | 3
N#Cc1cccc(-c2ccc(C3[C@H]4CNC[C@@H]3N4Cc3cccc(F)c3)cc2)c1 (some centres undefined) | 2&-19 | -4&-11
CN1c2ccc(C#Cc3cccnc3)cc2[C@H]2[C@H](CCN2C(=O)C2CC2)[C@@H]1CO | 7 | 3
CCc1cnc(N2[C@H](CO)[C@H](c3ccc(C4=CCCCC4)cc3)[C@@H]2C#N)s1 | -22 | -11
COc1ccc2c3c(n(C)c2c1)[C@H](CO)N(S(C)(=O)=O)CC31CN(C(=O)C2CCC2)C1 | 18 | 8
CCCC#Cc1ccc2c(c1)O[C@@H](CN(C)Cc1cncnc1)[C@@H](C)CN([C@H](C)CO)S2(=O)=O | 6 | -1
C[C@H]1CN([C@@H](C)CO)C(=O)c2cccc(NC(=O)Nc3ccc4c(c3)OCO4)c2O[C@H]1CN(C)Cc1ccc2c(c1)OCO2 | 0 | -4
CO[C@@H](CN(C)S(=O)(=O)c1ccc(Cl)cc1)[C@@H](C)CN([C@@H](C)CO)S(=O)(=O)c1cccc(Cl)c1 | ? | .
C[C@H]1CCCCO[C@@H](CN(C)S(=O)(=O)c2cn(C)cn2)[C@@H](C)CN([C@@H](C)CO)C(=O)c2cc(NS(=O)(=O)c3cn(C)cn3)ccc2O1 | 19 | 11
Cc1noc(C)c1S(=O)(=O)Nc1ccc2c(c1)CC(=O)N([C@@H](C)CO)C[C@H](C)[C@H](CN(C)Cc1ccc(-c3ccccc3)cc1)O2 | -25 | -19
O=C(CC1CC1)N1CC(=O)N2[C@H](CO)[C@@H](c3ccc(C#Cc4ccccc4)cc3)[C@H]2C1 | -14 | -20
C/C=C/c1ccccc1[C@@H]1[C@H](C#N)N(c2ncc(CC)s2)[C@H]1CO | -14 | 0
C[C@@H]1CN([C@@H](C)CO)C(=O)c2cc(-c3ccccc3)cnc2O[C@H]1CN(C)C(=O)Cc1ccccc1 | -2 | 0
CC(C)C#Cc1cnc2c(c1)C(=O)N([C@@H](C)CO)C[C@H](C)[C@@H](CN(C)C(=O)Nc1cc(F)ccc1F)O2 | -6 | -4
COc1ccc2c3c(n(C)c2c1)[C@H](CO)N(C(=O)Cc1ccccn1)CC31CN(C)C1 | 11 | 8
C[C@@H]1CCCCO[C@@H](CN(C)C(=O)NC2CCCCC2)[C@@H](C)CN([C@@H](C)CO)C(=O)c2cc(NC(=O)Nc3ccc(F)cc3)ccc2O1 | 17 | 10
O=C1CNC[C@H]2[C@@H](c3ccc(Br)cc3)[C@@H](CO)N12 | 6 | 4
O=C(C[C@@H]1CC[C@@H]2NC[C@@H](O)COC[C@H]2O1)NC1Cc2ccccc2C1 | 7 | 8
C[C@@H]1CN([C@H](C)CO)C(=O)Cc2cc(NC(=O)C3CC3)ccc2O[C@@H]1CN(C)Cc1ccc2c(c1)OCO2 | 6 | 2
COc1ccccc1-c1cnc2c(c1)C(=O)N([C@H](C)CO)C[C@@H](C)[C@H](CN(C)Cc1ccccc1)O2 | -26 | -15
COc1ccc(S(=O)(=O)N(C)C[C@H]2Oc3ccc(NC(=O)CCN4CCOCC4)cc3C(=O)N([C@@H](C)CO)C[C@@H]2C)cc1 | 33 | 27
C[C@H](CO)N1C[C@H](C)[C@@H](CN(C)S(=O)(=O)c2ccc(F)cc2)Oc2ccc(NC(=O)Nc3ccccc3)cc2C1=O | 5 | 8
N#C[C@@H]1[C@H](c2ccccc2)[C@H](CO)N1C(=O)CCN1CCCCC1 | 16 | -1
Cc1ccc(S(=O)(=O)N(C)C[C@H]2OCCCC[C@@H](C)Oc3ccc(NS(C)(=O)=O)cc3C(=O)N([C@H](C)CO)C[C@@H]2C)cc1 | 7 | -1
Cc1cccc(S(=O)(=O)N2C[C@H](O)COC[C@@H]3O[C@@H](CC(=O)N4CCN(C)CC4)CC[C@H]32)c1 | -3 | 6
CC(C)NC(=O)Nc1ccc2c(c1)C(=O)N([C@@H](C)CO)C[C@@H](C)[C@H](CN(C)C)O2 | 20 | 9
C[C@@H]1CN([C@@H](C)CO)C(=O)c2cc(NC(=O)Nc3ccccc3)ccc2O[C@@H](C)CCCCO[C@H]1CN(C)Cc1ccncc1 | -11 | -7
O=C(C1CCCC1)N1CC2(C1)[C@@H](c1ccccc1)[C@@H](CO)N2CC1CCCC1 | ? | .
CCCN(C)C[C@H]1Oc2cc(-c3ccccc3F)ccc2S(=O)(=O)N([C@@H](C)CO)C[C@H]1C | -4 | -9
C[C@@H]1CN([C@H](C)CO)C(=O)c2cc(NC(=O)Nc3ccc(F)cc3)ccc2O[C@@H](C)CCCCO[C@@H]1CN(C)Cc1ccc(C(=O)O)cc1 | 8 | 0
CN(C)CC(=O)N[C@@H]1CC[C@H](CCn2cc(CN(C)C)nn2)O[C@@H]1CO | 3 | -5
OC[C@@H]1[C@H](c2ccc(C3=CCCC3)cc2)[C@H]2CN(CCC(F)(F)F)CCCCN12 | ? | .
C[C@@H]1CN([C@H](C)CO)C(=O)c2cccc(NC(=O)Nc3ccccc3)c2O[C@@H]1CN(C)Cc1ccc(-c2ccccc2)cc1 | -3 | -3
CCCNC(=O)Nc1ccc2c(c1)C(=O)N(C)[C@@H]1CC[C@@H](CC(=O)OC)O[C@H]1CO2 | -9 | -4
CO[C@H]1CN(C)C(=O)c2cc(NC(=O)C3CC3)ccc2OC[C@H](C)N(Cc2ccccc2)C[C@@H]1C | -17 | -17
O=C(N[C@@H]1C=C[C@H](CC(=O)N2CCc3ccccc3C2)O[C@H]1CO)C1CCC1 | 6 | 8
O=C(C[C@H]1CC[C@@H](NC(=O)Nc2ccc(F)cc2)[C@@H](CO)O1)NCc1ccccn1 | 7 | 9
CN1C(=O)c2cc(NC(=O)C3CC3)ccc2OC[C@H]2O[C@@H](CC(=O)O)CC[C@@H]21 | 9 | 4
Cc1noc(C)c1NC(=O)N(C)C[C@H]1Oc2c(NC(=O)c3cnccn3)cccc2C(=O)N([C@@H](C)CO)C[C@H]1C | 5 | 5
CC(C)NC(=O)N(C)C[C@@H]1OCCCC[C@@H](C)Oc2ccc(NS(=O)(=O)c3ccc(F)cc3)cc2C(=O)N([C@H](C)CO)C[C@@H]1C | 25 | 17
O=C(c1ccc2c(c1)OCO2)N1C[C@@H]2[C@H](c3ccccc31)[C@H](CO)N2CC1CCCC1 | -13 | -14
Cc1noc(C)c1NC(=O)N[C@@H]1CC[C@H](CCNC(=O)C2CCCC2)O[C@@H]1CO | 1 | 4
C[C@H](CO)N1C[C@H](C)[C@H](CN(C)C(=O)Nc2ccc(F)cc2)Oc2ccc(NC(=O)NC3CCCCC3)cc2CC1=O | 4 | 7
COc1cccc(CNC(=O)c2cc3c(c(-c4cccc(-c5cccc(C#N)c5)c4)n2)[C@H](CCO)N([S@@](=O)C(C)(C)C)C3)c1 | ? | .
C[C@@H]1CN([C@H](C)CO)C(=O)c2cc(C#Cc3ccncc3)cnc2O[C@H]1CN(C)CC1CCCC1 | 5 | 5

Sorted by length of the SMILES (high to low): ten of the compounds above
mol | Vaccinia stage | Vaccinia stage Venus
CC(C)NC(=O)N(C)C[C@@H]1OCCCC[C@@H](C)Oc2ccc(NS(=O)(=O)c3ccc(F)cc3)cc2C(=O)N([C@H](C)CO)C[C@@H]1C | 25 | 17
COc1cccc(CNC(=O)c2cc3c(c(-c4cccc(-c5cccc(C#N)c5)c4)n2)[C@H](CCO)N([S@@](=O)C(C)(C)C)C3)c1 | ? | .
C[C@@H]1CN([C@H](C)CO)C(=O)c2cccc(NC(=O)Nc3ccccc3)c2O[C@@H]1CN(C)Cc1ccc(-c2ccccc2)cc1 | -3 | -3
C[C@H](CO)N1C[C@H](C)[C@H](CN(C)C(=O)Nc2ccc(F)cc2)Oc2ccc(NC(=O)NC3CCCCC3)cc2CC1=O | 4 | 7
CO[C@H]1CN(C)C(=O)c2cc(NC(=O)C3CC3)ccc2OC[C@H](C)N(Cc2ccccc2)C[C@@H]1C | -17 | -17
C[C@@H]1CN([C@H](C)CO)C(=O)c2cc(C#Cc3ccncc3)cnc2O[C@H]1CN(C)CC1CCCC1 | 5 | 5
O=C(c1ccc2c(c1)OCO2)N1C[C@@H]2[C@H](c3ccccc31)[C@H](CO)N2CC1CCCC1 | -13 | -14
O=C(C[C@H]1CC[C@@H](NC(=O)Nc2ccc(F)cc2)[C@@H](CO)O1)NCc1ccccn1 | 7 | 9
Cc1noc(C)c1NC(=O)N[C@@H]1CC[C@H](CCNC(=O)C2CCCC2)O[C@@H]1CO | 1 | 4
O=C(N[C@@H]1C=C[C@H](CC(=O)N2CCc3ccccc3C2)O[C@H]1CO)C1CCC1 | 6 | 8

Next section
mol | Vaccinia stage | Vaccinia stage Venus
C[C@H]1CCCCO[C@H](CN(C)Cc2ccc(C(=O)O)cc2)[C@@H](C)CN([C@@H](C)CO)C(=O)c2cc(NC(=O)c3ccncc3)ccc2O1 | 23 | 4
CN1CCN(C(=O)C[C@H]2C=C[C@@H](NS(=O)(=O)c3cccc(F)c3)[C@H](CO)O2)CC1 | 1 | 0
CC=Cc1ccc2n(c1=O)C[C@@H]1[C@@H](CO)[C@H](C(=O)NCC3CC3)[C@H]2N1CC1CCOCC1 (mixture of isomers) | 0 | -4
C[C@@H]1CN([C@H](C)CO)C(=O)c2cccc(NC(=O)C3CCCCC3)c2O[C@H]1CN(C)S(=O)(=O)c1ccc(Cl)cc1 | -7 | -5
CC(C)CC#Cc1cnc2c(c1)C(=O)N([C@@H](C)CO)C[C@H](C)[C@@H](CN(C)C(=O)c1ccc(F)cc1)O2 | -10 | -8
C[C@@H]1CN([C@@H](C)CO)S(=O)(=O)c2ccc(C#CC3(O)CCCC3)cc2O[C@@H]1CN(C)C(=O)c1ccncc1 | 14 | 10
CC(C)NC(=O)N(C)C[C@@H]1Oc2ncc(-c3ccc(C(=O)N(C)C)cc3)cc2C(=O)N([C@H](C)CO)C[C@H]1C | 3 | -3
CN1C(=O)c2cc(NS(C)(=O)=O)ccc2OC[C@@H]2O[C@@H](CC(=O)NCc3ccc(-c4ccccc4)cc3)CC[C@@H]21 | -9 | 0
CO[C@H]1CN(C)C(=O)c2ccc(NC(C)=O)cc2OC[C@@H](C)N(C(=O)C2CCCCC2)C[C@@H]1C | -17 | -12
C[C@@H]1CN([C@@H](C)CO)S(=O)(=O)c2ccc(C#Cc3ccc(F)cc3)cc2O[C@@H]1CN(C)S(C)(=O)=O | ? | .
C[C@@H]1CN([C@H](C)CO)C(=O)c2cccc(NC(=O)C3CC3)c2O[C@@H]1CN(C)Cc1ccc(C(F)(F)F)cc1 | 4 | 10
Cc1ccccc1S(=O)(=O)NCC[C@H]1CC[C@@H](NC(=O)C2CCC2)[C@H](CO)O1 | 0 | 2
O=C(NC1CC1)C1=C[C@@H](C2CCCCC2)C[C@@H](OCCCCO)O1 | 5 | -1
C[C@H](CO)N1C[C@H](C)[C@@H](CN(C)S(=O)(=O)c2ccc(F)cc2)Oc2ncc(/C=C/c3ccccc3)cc2C1=O | ? | .
Cc1ccccc1S(=O)(=O)N1[C@H](C#N)[C@H](c2ccc(C#CC3CCCC3)cc2)[C@H]1CO | -12 | -9
O=C(Nc1cc(F)ccc1F)N[C@H]1CC[C@H](CCn2cc(C3CCCC3)nn2)O[C@H]1CO | -19 | -11
C[C@H](NC(=O)C[C@@H]1C=C[C@H](NC(=O)C2CC2)[C@@H](CO)O1)c1ccccc1 | -1 | 0
COc1ccccc1-c1ccc2c(c1)O[C@@H](CN(C)C(C)=O)[C@H](C)CN([C@H](C)CO)S2(=O)=O | 17 | 7
C[C@@H]1CCCCO[C@@H](CN(C)C(=O)Nc2ccc(C(F)(F)F)cc2)[C@@H](C)CN([C@H](C)CO)C(=O)c2cc(NC(=O)C3CCCCC3)ccc2O1 | -2 | 0
C[C@@H]1CCCCO[C@@H](CN(C)S(=O)(=O)c2ccc(Cl)cc2)[C@H](C)CN([C@H](C)CO)C(=O)c2cc(NC(=O)C3CCCCC3)ccc2O1 | -27 | -13
C[C@H](CO)N1C[C@H](C)[C@H](CN(C)Cc2ccc(C(=O)Nc3ccccc3N)cc2)Oc2c(NC(=O)c3cnccn3)cccc2C1=O | -14 | 1
C[C@H](CO)N1C[C@H](C)[C@@H](CN(C)C(=O)Nc2cccc(Cl)c2Cl)OCc2ccccc2-c2c(n(C)c3ccccc23)C1=O | ? | .
C/C=C/c1ccc2c(c1)O[C@@H](CN(C)C(=O)Nc1cccc(F)c1)[C@@H](C)CN([C@@H](C)CO)S2(=O)=O | ? | .
C[C@H](CO)N1C[C@H](C)[C@@H](CN(C)Cc2cncnc2)Oc2ncc(-c3cccc(C#N)c3)cc2C1=O | 10 | 16
COc1ccc(NC(=O)Nc2ccc3c(c2)CC(=O)N([C@@H](C)CO)C[C@H](C)[C@@H](CN(C)S(C)(=O)=O)O3)cc1 | 6 | 3
O=C(C[C@@H]1CC[C@H]2[C@@H](COC[C@@H](O)CN2C(=O)Nc2ccc(F)cc2)O1)NC1CCC1 | 1 | -10
O=C(c1cnccn1)N1CC(=O)N2[C@@H](CO)[C@H](c3ccc(C#CC4CCCC4)cc3)[C@@H]2C1 | 0 | -3
C[C@H](CO)N1C[C@H](C)[C@H](CN(C)S(=O)(=O)c2ccc(F)cc2)OCCCC[C@H](C)Oc2ccc(NS(=O)(=O)c3cccs3)cc2C1=O | ? | .
O=C(c1cccc(F)c1)N1CCCCN2[C@@H](CO)[C@@H](c3ccc(/C=C/c4ccccc4)cc3)[C@@H]2C1 | ? | .
